# Compound activity as filed in PubChem BioAssay.
# Lassa entry inh – inhibitors of Lassa virus binding or cell entry | Lassa virus pseudotype entry inhibition, cell reporter; control for the full effect not named in the record | Potency, µM (titrated, usually from 37.9 µM), without a hit: top-dose activity change, negative = inhibition, usual class: inhibitors | hit rate 1.2% among 300,000 | AID 540256; active means well fitted inhibition curve with a large enough effect; inconclusive means small, poorly fitted or top-dose-only effect, or effect the other way; inactive means flat fitted curve, though single readings scatter; tested in HEK293 cells; note: % is set by controls: 0 for no effect and ±100 for the full control effect; nearly all actives have a fitted effect of over 50% in size; luciferase read-out
# Cruzain Triton – cruzain (T. cruzi) inhibition with detergent | P25779 | purified cruzain, Z-FR-AMC fluorescence, 0.01% Triton | Potency, µM, without a hit: max response, negative = inhibition, usual class: inhibitors | hit rate 0.43% among 200,000;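 note: plate controls were neutral wells for no effect and buffer without enzyme for full effect; nearly all actives have a fitted effect of over 40% in size; top concentration of the series not given in the record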
# Target sequence (P25779 123-467 limits assumed): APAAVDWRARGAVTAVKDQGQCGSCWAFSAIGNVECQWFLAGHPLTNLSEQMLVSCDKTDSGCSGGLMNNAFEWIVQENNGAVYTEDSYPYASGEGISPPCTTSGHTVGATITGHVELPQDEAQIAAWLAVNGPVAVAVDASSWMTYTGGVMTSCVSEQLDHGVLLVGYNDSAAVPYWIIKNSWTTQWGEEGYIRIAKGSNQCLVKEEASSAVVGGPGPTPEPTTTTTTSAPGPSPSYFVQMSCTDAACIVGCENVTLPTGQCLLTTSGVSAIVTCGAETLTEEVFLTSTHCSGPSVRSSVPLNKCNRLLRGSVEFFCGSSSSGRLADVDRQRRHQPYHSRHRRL
#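 Cysteine protease activity tested under reducing, mildly acidic conditions (100 mM sodium acetate pH 5.5, 5 mM DTT) plus 0.01% Triton X-100. Cruzain 1.5 nM; substrate Z-FR-AMC 2 uM; 15 min compound preincubation at room temperature.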
# NS1 inh – inhibitors of influenza NS1 protein function; S. cerevisiae slowed by influenza A NS1, growth recovery by OD600; Potency, µM (top dose mostly 46.1 µM), inactives show at the highest dose activity, positive = more growth; hit rate 0.4% among 270,000; AID 2326; active means well fitted rising curve with a large enough effect; inconclusive means small, poorly fitted or top-dose-only effect; inactive means no such curve, though single readings can be large or run the other way; note: nearly all actives have a fitted effect of over 50% in size
#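 Read-out: OD600 growth recovery of NS1-expressing budding yeast. Cells grown overnight at 30C in -URA glucose medium, washed, resuspended and diluted 1:100 in 2% galactose assay medium, pH 6.0. Same strain lacking NS1 served as positive control.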
# StopGo reporter – lowers the luciferase signal of an FMDV 2A StopGo reporter | AID 1159524 | Potency, µM (highest dose often 57.9 µM), for the others: at the highest dose signal change, negative = less light | human cells with a luciferase reporter of 2A StopGo recoding; control for the full effect not named in the record | hit rate 1.2% among 410,000; active = well fitted falling curve with a large enough effect; inconclusive = small, poorly fitted or top-dose-only effect; inactive = no such curve, though single readings can be large or run the other way; tested in HEK293T cells; note: % is set by controls: 0 for no effect and ±100 for the full control effect; nearly all actives have a fitted effect of over 45% in size; luciferase light after 4 h
# RE007 growth inh – less growth of the S. pombe RE007 Vpr strain; hit rate 0.21% among 360,000; Potency, µM (doses to about 92.2 µM), for the others: at the top dose activity change, negative = less growth; S. pombe RE007 Vpr strain, BacTiter-Glo ATP luminescence, 24 h; control for the full effect not named in the record; active = well fitted falling curve with a large enough effect; inconclusive = small, poorly fitted or top-dose-only effect; inactive = no such curve, though single readings can be large or run the other way;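 note: % is set by controls: 0 for no effect and ±100 for the full control effect; nearly all actives have a fitted effect of over 50% in size; the assay follows cell death caused by Vpr and the record does not say whether a fall means rescue or toxicity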
#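 Fission yeast RE007 carrying one integrated HIV-1 vpr copy, seeded at OD 0.01 in PMG+AL medium with 23 nL pinned compound. Grown 24 h at 30 degrees; viability read by BacTiter-Glo luminescence after 5 min.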
# SARS PLpro yeast – blocks SARS-CoV papain-like protease in a yeast assay. S. cerevisiae expressing SARS-CoV PLpro, growth rescue; control for the full effect not named in the record. Potency, µM (titrated, usually from 32.9 µM), without a hit: at the highest dose activity, positive = growth rescue. hit rate 0.19% among 330,000. AID 485353; active means well fitted rising curve with a large enough effect; inconclusive means small, poorly fitted or top-dose-only effect; inactive means no such curve, though single readings can be large or run the other way; note: 0% is about no effect; nearly all actives have a fitted effect of over 55% in size; growth read by luminescence after 48 h
# Cruzain inh noDet – inhibitors of Trypanosoma cruzi cruzain without detergent. P25779. purified cruzain, Z-FR-AMC fluorescence, no detergent. Potency, µM, inactives show max response, negative = inhibition, most hits filed as inhibitors. hit rate 2.3% among 200,000. AID 1476;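 note: plate controls were enzyme without inhibitor for no effect and buffer without enzyme for full effect; nearly all actives have a fitted effect of over 40% in size; top concentration of the series not given in the record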
#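 Detergent-free condition (0.00005% Triton X-100) in acetate buffer pH 5.5 with DTT. 1.5 nM enzyme and compound were pre-mixed 15 min, then 2 uM Z-FR-AMC substrate added; reaction progress from fluorescence change between first and third reads (60 s).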
# Marburg entry inh – inhibitors of Marburg virus binding or cell entry | Marburg virus pseudotyped entry inhibition, cell reporter; control for the full effect not named in the record; about a third of the inactives were read at about 46 µM | Potency, µM (highest dose often 37.8 µM), without a hit: top-dose activity change, negative = inhibition, most hits filed as inhibitors | hit rate 1.8% among 300,000; active = well fitted inhibition curve with a large enough effect; inconclusive = small, poorly fitted or top-dose-only effect, or effect the other way; inactive = flat fitted curve, though single readings scatter; tested in HEK293 cells; about a fifth of its hits are not listed in these tables; note: % is set by controls: 0 for no effect and ±100 for the full control effect; luciferase read-out
# The depositor's hits bear a star; u = inconclusive; x = no result given; & = joins results of further samples; [ ] = remark or other dose. Unless noted, calls come from the whole dose curve; as a rule, active = well fitted curve in the direction sought with a large enough effect; inconclusive = small, poorly fitted or top-dose-only effect, or another doubt; inactive = no such curve, though single readings can be large; an effect the other way counts as inactive or inconclusive. Potency is the fitted concentration of half-maximal effect.
SMILES,Lassa entry inh,Cruzain Triton,NS1 inh,StopGo reporter,RE007 growth inh,SARS PLpro yeast,Cruzain inh noDet,Marburg entry inh
CCCCNc1nc(Oc2ccc(=O)[nH]n2)nc(N(C)C)n1,4.2%[46.1 µM],-1.2%,x,-0.1%,x,x,-21.8%,-11.4%[46.1 µM]
CCN(CC)CCN(C(=O)C1=COCCO1)c1nc2ccc(C)cc2s1,-17.6%[46.1 µM],x,0.7%,0.0%,1.4%,3.0%,x,u
S=c1[nH]nc(-c2ccc(Cl)cc2Cl)n1Cc1ccccc1,4.2%,-8.4%,11.2%,-9.3%,u,-29.7%,0.0%,31.5%
O=C(Cn1cncn1)NCc1cccc(OC(F)F)c1,-3.1%,x,x,-4.2%,-17.4%,2.1%,x,-10.3%[46.1 µM]
CCOC(=O)c1c(-c2ccc(OC)cc2)csc1NC(=O)CNCc1ccco1,u,0.5%,19.8%,u,-18.5%,4.7%,22.2%,-13.7%
CCN(CC)CCN1C(=O)c2ccccc2NC1c1ccc(C)cc1 (stereo unspecified),-7.2%,2.4%,3.2%,12.4%,-13.4%,1.2%,14.9%,u
CC(C)N(C=O)C1(C(=O)NC2CCCCC2)CCCCC1,-1.3%,-2.5%,0.2%,7.0%,26.2%,3.4%,-2.5%,-7.8%
CC(C)NC(=S)Nc1ccc2cn[nH]c2c1,4.6%,-3.4%,13.0%,-5.8%,1.4%,4.1%,-5.0%,4.6%
Cc1ccc(C)c(NC(=O)c2cc3ccccc3o2)c1,x,x,-25.1%,55.3%[activator],2.0%,-12.6%,x,x
CN1Cc2c(N3CCOCC3)nc(SCCC#N)c(C#N)c2CC1(C)C,-2.5%,x,2.1%,-8.1%,-5.6%,-0.2%,x,-1.4%[46.1 µM]
COc1ccc(NC2CCCN(C(=O)CCCn3cncn3)C2)cc1OC (stereo unspecified),3.6%[46.1 µM],x,-1.8%,-5.9%,7.3%,-2.1%,x,u
ON=C1/C(=N\O)CC2(C/C1=N/O)OCCO2,-10.3%,7.9%,13.5%,0.1%,6.6%,-3.8%,-1.1%,-28.5%
Cc1ccc(NC(=O)c2cnc(SCC(=O)N3CCOCC3)n(C)c2=O)cc1C,1.2%[46.1 µM],0.5%,x,u,x,x,7.9%,x
CCN(CC)C(c1ccc(F)cc1)c1nnnn1C1CCCCC1 (stereo unspecified),2.1%,5.2%,-16.6%,-7.4%,-11.2%[3.69 µM],9.3%,-2.6%,4.1%
COc1ccc(CN=C2Nc3ccccc3CS2)cc1,u,-14.8%,-8.8%,-23.7%,-7.9%[3.69 µM],0.0%,-12.5%,u
COc1ccccc1N1CCN(c2ccc(-c3nc(-c4ccccc4C)no3)cc2[N+](=O)[O-])CC1,-14.3%[46.1 µM],-8.2%,x,37.1%[activator],x,x,12.9%,10.2%[46.1 µM]
CCc1nccn1CCC(=O)NC1CC(C)(C)Cc2c1cnn2-c1ccc(C)cc1 (stereo unspecified),24.9%,x,17.9%,-10.8%,-11.7%,7.9%,x,u
Cc1ccc(-c2nc3cccnc3s2)cc1NC(=O)C1c2ccccc2Oc2ccccc21,u,4.4%,11.9%,39.3%[activator],-3.7%,15.7%,-13.8%,u
O=C(O)c1ccc([N+](=O)[O-])cc1,x,0.4%,x,-22.8%,u,x,0.4%,x
C/C(=N/NS(=O)(=O)c1ccccc1)c1c[nH]c2ccccc12,27.2%[46.1 µM],x,-10.3%,-1.7%,-2.4%,4.8%,x,2.0%[46.1 µM]
CCCC(NS(=O)(=O)c1ccc(Br)cc1)C(=O)O (stereo unspecified),-6.7%,2.9%,1.9%,2.3%,5.3%,0.0%,-14.1%,-3.3%
Cc1cc([N+](=O)[O-])nn1Cc1ccc(C(=O)N/N=C/c2ccccc2)cc1,3.8%,-4.5%,14.9%,4.0%,-8.0%,1.8%,-4.2%,16.4%
Cc1cc(Oc2cc(NN3CCCCC3)c([N+](=O)[O-])cc2[N+](=O)[O-])ccc1[N+](=O)[O-],x,x,-17.3%,-20.5%,-0.4%,-0.7%,x,x
Cc1cc(C(=O)N/N=C/c2ccc(O)c(O)c2O)c(C)n1-c1ccccc1,u,x,x,-6.5%,13.5%,13.6%,x,u
CC(C)N1CCC(N2CCN(Cc3ccc(Oc4ncccn4)cc3)CC2CCO)CC1 (stereo unspecified),6.5%,x,6.6%,2.7%,1.5%,1.5%,x,u
CC(=O)Nc1ccc(S(=O)(=O)N2CCc3cc4c(cc3C2)OCCCO4)cc1,x,x,u,u,-16.4%,9.4%,x,x
CCCN1C(=O)C(O)(CC(=O)c2ccc3c(c2)OCCO3)c2ccccc21 (stereo unspecified),0.0%,-2.5%,3.8%,-21.2%,10.9%,0.9%,2.3%,6.2%[46.1 µM]
Cc1c(Cc2ccccc2)c(=O)oc2cc(OCc3ccc(C(=O)O)cc3)ccc12,-20.9%,x,1.4%,30.4%[activator],-4.0%,13.7%,x,22.6%[46.1 µM]
C=CCOC1COC2C(OCC=C)COC12 (stereo unspecified),29.5%,x,x,-9.1%,14.0%,x,x,-3.7%
COc1cccc(-c2nc(CS(=O)(=O)CC(=O)Nc3cccc(C)c3C)c(C)o2)c1,x,-2.8%,-32.3%,u,5.8%,-12.9%,-13.6%,0.2%
Cc1[nH]c2ccccc2c1C1=NNC(=Nc2ccc(F)cc2)SC1,x,-8.4%,u,u,0.5%,4.2%,u,x
Cc1nc(N)sc1N=Nc1ccccc1C(F)(F)F,-5.3%[46.1 µM],x,-1.4%,35.3%[activator],-14.7%,-4.6%,x,u
CC1=CC(=O)Nc2cncnc2N1,-12.9%[46.1 µM],x,x,-7.2%,-13.9%,x,x,-12.1%[46.1 µM]
CC(C)N(Cc1nc(-c2ccc(Cl)cc2)no1)C(=O)C12CC3CC(CC(C3)C1)C2,4.5%,-7.7%,0.5%,-28.9%,1.7%,3.8%,-17.2%,-1.0%
COc1cccc(-c2cn3c(n2)sc2cc(C(=O)NC4CCCCC4)ccc23)c1,-4.1%[46.1 µM],-1.5%,x,-6.2%,x,x,-4.2%,x
O=C(O)c1cccc2c1C(=O)c1ccccc1-2,11.9%,x,-35.9%,-0.2%,1.1%,0.0%,x,3.6%[46.1 µM]
CCCCC(=O)N/N=C/c1ccc(Sc2cccc3cccnc23)o1,u,-9.5%,-5.2%,-10.2%,34.5%,2.8%,0.0%,8.8%
C=CCn1c(C)cc(C(=O)CN2NS(=O)(=O)c3ccccc3C2=O)c1C,x,x,-6.1%,5.4%,12.1%,7.9%,x,x
CN1CCN(C(=O)CCNC(=O)Cn2cnc3ccccc3c2=O)CC1,-3.5%,x,11.8%,-4.0%,-0.8%,-0.4%,x,12.6%[46.1 µM]
O=C(Nc1cc(Cl)ccc1Cl)Nn1cnnc1,x,x,6.9%,-18.6%,-1.1%,11.7%,x,x
C=CCN1CC2(c3ccccc3)CN(CC=C)CC(c3ccccc3)(C1)C2=O,6.5%[46.1 µM],x,6.3%,-1.3%,-0.1%,-2.9%,x,u
CCOc1ccccc1C(=O)NCC(=O)NCC1CCCCC1,21.7%,x,-1.7%,-12.6%,2.5%,-13.7%,x,-16.4%[46.1 µM]
CSc1ccccc1OCc1cc(C(=O)NCCCc2ccccc2)no1,-0.5%,x,10.0%,-20.2%,-22.9%,-0.8%,x,22.8%
Cn1c(SCC(=O)Nc2ccccc2O)nnc1-c1ccco1,-1.4%,x,5.0%,-2.1%,22.9%,-2.1%,x,-4.8%
Cc1ccc(C)c(NC(=S)N(Cc2ccc(Cl)cc2)Cc2ccc(C(=O)O)cc2)c1,-28.6%[46.1 µM],x,x,-17.1%,5.8%,-4.8%,x,u
CC(=O)N1CC(=O)Nc2ccc(F)cc2C1c1ccccc1 (stereo unspecified),u,0.9%,0.4%,-18.2%&0.2%,-9.6%,0.5%,-1.9%,3.5%[46.1 µM]
Cc1ccc(N2CC(C(=O)NC3CCSC3=O)CC2=O)cc1 (stereo unspecified),0.3%,4.6%,-1.7%,-2.5%,5.4%,-23.9%,7.0%,-14.7%
O=[N+]([O-])c1cnn(-c2nc(-c3cccs3)cc(C(F)(F)F)n2)c1,-15.7%[46.1 µM],x,x,-19.5%,-7.2%,-1.6%,x,5.7%[46.1 µM]
COCc1cc(C)nc2sc3c(=O)n(-c4ccccc4C(F)(F)F)nnc3c12,10.8%[46.1 µM],1.2%,x,u,x,x,8.3%,x
Cc1nc(NC(=O)c2cccs2)ccc1Br,6.31µM*,x,-7.8%,1.2%,-21.8%,-2.6%,x,u
C/C(CCc1ccco1)=N/NC(=O)CCC(=O)Nc1cccc(Cl)c1,u,2.0%,16.0%,7.9%,-5.1%,-4.1%,-9.5%,3.6%[46.1 µM]
Cc1nc2ccc(NC(=O)/C=C/C(=O)O)cc2nc1C,19.8%,x,x,7.1%,-5.0%,-2.4%,x,8.1%[46.1 µM]
O=S(=O)(NCc1ccccc1)c1cccc2cccnc12,16.1%,3.3%,2.5%,34.3%[activator],-4.6%,-5.2%,-15.3%,24.3%
O=C(Nc1nc(=O)n(C(=O)c2cccc(C(F)(F)F)c2)s1)c1ccccc1,x,x,-34.1%,5.5%,-0.1%,1.5%,x,0.3%
CCCCN(Cc1cc2cc(C)ccc2[nH]c1=O)C(=O)c1ccccn1,x,x,1.6%,-17.6%,25.5%,1.6%,x,x
CCOc1cccc(CN2CCN(CCCc3ccccc3)C(CCO)C2)c1O (stereo unspecified),x,x,-1.4%,-21.8%,3.9%,-2.2%,x,x
CCOC(=O)N1CCN(C(=O)c2cc3c(-c4cccc(OC)c4)nn(C)c3s2)CC1,u,x,-5.3%,u,3.8%,-1.2%,x,u
